Mtb betalactam = beta-lactam sensitization of Mtb H37Rv; M. tuberculosis H37Rv growth with meropenem, percent inhibition; hits of this screen are not shown here; inhibition, % at 25 µM; 0.27% of 330,000 active; AID 434955;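 active means about 74% or more and at least 40 points above the plate without the antibiotic, then above 30% in a dose series; inconclusive means first-round hits that could not be retested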;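 further: growth measured after seven days incubation then overnight dye step; 0% = bacteria only wells and 100% = bacteria with antibiotic; twin plates without the antibiotic show which effects depend on it; some results filed as inactive read as strong as hits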
* hit, by the source's call; ? = inconclusive. Some of the compounds tested, so the mix of outcomes need not match the whole.

item | molecule | Mtb betalactam
1 | CN(C)C(CNC(=O)c1cccs1)c1ccco1 (stereo not given) | 2
2 | COc1ccc(N(CC(=O)NC2CCCCCC2)S(=O)(=O)c2ccccc2)cc1Cl | ?
3 | COc1cccc(NC(=O)CN(C)C(=O)c2ccc(NS(=O)(=O)c3ccc(F)cc3)cc2)c1 | -1
4 | Cc1cc(NC(=O)C(C)SCC(=O)N(C)Cc2ccccc2F)no1 (stereo not given) | 10
5 | O=S(=O)(c1cccc(F)c1)N1CCN(Cc2cc3c(cc2Br)OCCO3)CC1 | 2
6 | CC(Oc1cccnc1[N+](=O)[O-])C(=O)Nc1ccc(Cl)cn1 (stereo not given) | -7
7 | Cc1cccc(C(=O)OCC(=O)NC23CC4CC(CC(C4)C2)C3)c1O | 8
8 | CCN(CC(=O)Nc1c(F)cccc1F)C(=O)Cc1ccsc1 | -1
9 | CCN(C(=O)CSc1nnc(SC)s1)c1c(N)n(Cc2ccccc2)c(=O)[nH]c1=O | -2
10 | COc1ccc(C(CNC(=O)c2ccc(-c3nc4ccccc4s3)o2)N2CCCC2)cc1 (stereo not given) | -1

Entries above with a thiophene ring, fused or not, in the order listed:
item | molecule | Mtb betalactam
1 | CN(C)C(CNC(=O)c1cccs1)c1ccco1 (stereo not given) | 2
8 | CCN(CC(=O)Nc1c(F)cccc1F)C(=O)Cc1ccsc1 | -1

Other entries:
item | molecule | Mtb betalactam
11 | CCCOc1ccc(C(F)(F)F)cc1NC(=O)CCc1c(C)noc1C | 20
12 | O=C(Oc1cc(Cl)ccc1Cl)C1=CC=CN2CCS(=O)(=O)N=C12 | -5
13 | Cn1nc(C(=O)OCC(=O)NCc2ccc(Cl)cc2)c2ccccc2c1=O | -8
14 | CC(O)c1cc2c(s1)c1cnn(Cc3ccccc3F)c(=O)c1n2C (stereo not given) | -2
15 | O=C(OCC(=O)N1CCc2ccccc21)c1ccc([N+](=O)[O-])o1 | 100
16 | CC(NC(=O)C1CCN(C(=O)Nc2ccccc2)CC1)c1ccc(Cl)cc1 (stereo not given) | 0
17 | O=C(OCC(=O)N1CCCCCC1)c1cnc(Cl)c(Cl)c1 | 76
18 | O=c1cc(-c2ccsc2)oc2cc(-c3ccc4c(c3)OCO4)ccc12 | 2
19 | Cc1cc(C)cc(NC(=O)CN(C)CC(=O)N(CC(C)C)c2c(N)n(CC(C)C)c(=O)[nH]c2=O)c1 | -5
20 | Cc1ccc(NC(=O)COC(=O)c2ccc[n+]([O-])c2)c(Br)c1 | 1
21 | O=C(COc1ccc(S(=O)(=O)N2CCOCC2)cc1)Nc1ccc(Br)cc1 | -8
22 | COc1cccc(NC(=O)CN(C)CC(=O)NCc2ccc(F)cc2)c1 | -5
23 | CCN(CC(=O)NCc1cccs1)C(=O)/C=C/c1cc(Br)ccc1OC(F)F | 36
24 | COc1ccc(S(=O)(=O)Nc2cccc3c2O[C@H](CN(C)Cc2ccc(-c4ccccc4)cc2)[C@@H](C)CN([C@H](C)CO)C3=O)cc1 | 2
25 | Cc1cc(=O)oc2cc(OCC(=O)N3CCN(C(C)c4ccccc4)CC3)c(Cl)cc12 (stereo not given) | 0
26 | Cc1onc(-c2ccccc2)c1C(=O)N/N=C/c1ccccc1OC(C)C | -2
27 | C[C@H](CO)N1C[C@H](C)[C@@H](CN(C)S(=O)(=O)c2cn(C)cn2)Oc2c(NC(=O)Nc3ccc4c(c3)OCO4)cccc2C1=O | 8
28 | Cc1ccc(C(=O)NNC(=O)c2n[nH]c(=O)c3ccccc23)cc1C | -1
29 | CCOc1ccc(C(=O)CC(C(=O)O)N2CCCCC2)cc1 (stereo not given) | -2
30 | CCN(CC(=O)Nc1c(F)cccc1F)C(=O)Cn1[nH]c(=O)c2ccccc2c1=O | 0
31 | Cc1ccccc1C(=O)NCC(=O)N1CCN(C/C=C/c2ccccc2)CC1 | 2
32 | CCOC(=O)C1=C(COC(=O)C2CC(=O)N(c3ccccc3F)C2)NC(=O)NC1C (stereo not given) | -4
33 | COc1ccc(NC(=O)CSc2nnc(-c3cccnc3)s2)cc1 | 30
34 | CC(C(=O)N1CCc2ccccc21)N(C)CC(=O)Nc1ccccc1Cl (stereo not given) | -5
35 | O=C(Nc1ccc(S(=O)(=O)N2CCCC2)cc1)c1ccc([N+](=O)[O-])cc1 | -23
36 | CC(C)Oc1ccc(S(=O)(=O)N2CCOCC2)cc1NC(=O)Cc1ccsc1 | -10
37 | Cc1ccc(OCCC(=O)NNC(=O)c2ccc(Br)cc2)cc1 | 3
38 | COc1cccc(-c2ncc3ccccc3c2COC(=O)c2ccc(C(F)(F)F)cc2)c1 | 2
39 | COC(=O)C1CCN(C(=O)COC(=O)c2cc(-c3ccccc3)nc3ccc(OC)cc23)CC1 | 38
40 | CC(=O)Nc1sc(C)c(C)c1C(=O)OCC(=O)Nc1ccc(S(N)(=O)=O)cc1 | -6

Down the list, quoted from above:
Compounds 31–40 in Mtb betalactam, in turn: 2, -4, 30, -5, -23, -10, 3, 2, 38, -6

(list continues)
item | molecule | Mtb betalactam
41 | CN(Cc1nc2ccccc2c(=O)[nH]1)C(=O)C1CC(=O)N(c2cccc3ccccc23)C1 (stereo not given) | -1
42 | Cn1c(N)c(C(=O)COC(=O)c2ccc(OC(F)F)cc2)c(=O)n(C)c1=O | -8
43 | CCCN(CC(=O)Nc1ccccc1C)C(=O)CSc1ccccc1C | -10
44 | COc1ccc(CCNC(=O)c2ccc(S(=O)(=O)N3CCCCC3)cc2)cc1 | 3
45 | COc1cccc(CNC(=O)c2cc(S(=O)(=O)N3CCOCC3)ccc2N2CCCC2)c1 | -9
46 | COC(=O)[C@@H](N)Cc1ccc(O)c(O)c1 | 5
47 | CCOc1ccc(S(=O)(=O)NCC(=O)OCc2nnc(-c3ccccc3)o2)cc1 | 4
48 | Cc1nc(NC(=O)COC(=O)[C@@H](NC(=O)c2ccco2)C(C)C)c(Cl)cc1Cl | -5
49 | COc1ccc(CN(C)CC(=O)NC(=O)NC2CCCCC2)cc1 | -2
50 | N#CC1(NC(=O)CN2C(=O)NC3(CCCCCC3)C2=O)CCCCC1 | -1
51 | CCCCc1cc(=O)oc2cc(OCC(=O)N3C[C@H]4C[C@@H](C3)c3cccc(=O)n3C4)c(Cl)cc12 | -4
52 | O=C(CSc1ccccn1)Nc1cccc(S(=O)(=O)N2CCCC2)c1 | -5
53 | Cc1ccc(C(=O)OCC(=O)NCc2ccc(Cl)cc2Cl)o1 | 6
54 | Cc1ccc(S(=O)(=O)N2CCN(C(=O)Cc3ccccc3)CC2)cc1C | 1
55 | COc1ccc([C@H](NC(=O)OC(C)(C)C)C(=O)OC(C)(C)C)cc1 | 0
56 | CCCCOc1ccc(C(=O)NCC(=O)N2CC(C)CC(C)C2)cc1 (stereo not given) | -6
57 | O=C(COC(=O)/C=C/c1ccc(OC(F)F)cc1)Nc1ccc2[nH]c(=O)[nH]c2c1 | -6
58 | COc1ccc(C(=O)OCC(=O)NCCc2ccc(F)cc2)cc1S(=O)(=O)N1CCOCC1 | -8
59 | CCCNC(=O)N1[C@H]2CC[C@@H]1C(C(=O)OC)=C(c1ccc(-c3ccccc3)c(F)c1)C2 | 14
60 | O=C1C=C(c2ccc(CO)cc2)C[C@@H](c2ccc3c(c2)OCO3)C1 | 6
61 | CC(=O)O[C@H]1C[C@@H]2CC[C@@H]3[C@H](CC[C@]4(C)C(=O)CC[C@@H]34)[C@@]2(C)C[C@@H]1OC(C)=O | -5
62 | CC(=O)Oc1ccc(N(C(C)=O)S(=O)(=O)c2ccc(Cl)cc2)c2ccccc12 | 13
63 | CCNC(=O)c1ccc(NC(=O)CC2SC(N3CCCCC3)=NC2=O)cc1 (stereo not given) | -1
64 | Cc1ccc(C(=O)Nc2cccc(C(F)(F)F)c2)cc1NC(=O)c1c[nH]c2cc(C(F)(F)F)ccc2c1=O | 2
65 | Cc1ccc2c(c1)C1CN(C)CCC1N2S(=O)(=O)c1ccc(C(C)C)cc1 (stereo not given) | -11
66 | Nc1cc(C(=O)OCC(=O)NNC(=O)c2ccccc2F)ccc1Cl | 54
67 | O=C(c1cnn(Cc2ccccc2)c1)N1CCN(S(=O)(=O)/C=C/c2ccccc2)CC1 | -1
68 | O=C(COC(=O)c1cccnc1Cl)NC1CCCCCC1 | 1
69 | Cn1c(SCc2ccc(F)cc2Cl)nc2ccccc2c1=O | -3
70 | COc1ccc(S(=O)(=O)N2CCC(C(=O)NC(c3nc4ccccc4[nH]3)C(C)C)CC2)cc1 (stereo not given) | -9
71 | O=C(CN1CCC(NC(=O)Nc2ccccc2)CC1)Nc1ccccc1F | -5
72 | C[C@@]12C(=O)Nc3ccc(F)cc3C(=O)N1[C@H]1c3ccccc3OC[C@@H]1[C@@H]2c1ccccc1 | -3
73 | O=C1CCCC(=NNC(=O)c2cc3ccccc3cc2O)C1 | 0
74 | CC(C)c1cccc(C(C)C)c1NC(=O)CN1C(=O)NC2(CCCCCCC2)C1=O | -1
75 | COc1ccc(-c2nn(-c3ccccc3)cc2C(=O)N(C)CC(=O)Nc2cccc(F)c2)cc1 | 9
76 | COC(=O)Cc1coc2cc(OC)ccc12 | -4
77 | C[C@H](CO)N1C[C@H](C)[C@@H](CN(C)S(=O)(=O)c2ccccc2)Oc2ccc(NC(=O)C3CC3)cc2C1=O | -10
78 | C[C@H]1CN([C@@H](C)CO)C(=O)c2cccc(NC(=O)c3ccncc3)c2O[C@H]1CN(C)C(=O)Nc1ccccc1 | 4
79 | Cc1sc2ncnc(NCC(c3ccccc3)N(C)C)c2c1C (stereo not given) | 0
80 | O=C(COC(=O)c1ccc2ncsc2c1)Nc1ccc(OC(F)(F)F)cc1 | 43
81 | CCOC(=O)N1CCN(CC(=O)Nc2ccccc2C(=O)Nc2ccccc2)CC1 | -5
82 | CCCCCCN(CCCCCC)C(=O)Cc1c(-c2ccc(F)cc2)[nH]c2ccccc12 | 2
83 | COc1ccc(S(=O)(=O)N2CCOCC2)cc1NC(=O)COC(=O)C1CCC1 | 0
84 | COc1cc(N(Cc2ccccc2)Cc2ccccc2)c2ncn(C(C)C)c2c1 | 2
85 | O=C(Cn1nnc(-c2ccccc2)n1)NCC(=O)Nc1ccc(F)c(F)c1F | -8
86 | O=C(O)c1ccccc1NS(=O)(=O)c1ccc(NN=Cc2ccc(F)cc2)c([N+](=O)[O-])c1 | -3
87 | O=C(N[C@H]1C/C=C\C[C@H](CC(=O)N(CCO)Cc2ccccc2)C(=O)N[C@H](Cc2c[nH]c3ccccc23)COC1=O)OCC1c2ccccc2-c2ccccc21 | 20
88 | CN(CCc1ccccc1)C(=O)c1ccc(NC(=O)Cc2ccc([N+](=O)[O-])cc2)cc1 | 83
89 | COc1cccc(CC(=O)Nc2ccc(S(=O)(=O)Nc3nccs3)cc2)c1 | -3
90 | O=C(NCCOc1ccccc1)C1=CC=CN2CCS(=O)(=O)N=C12 | -2

Next structures follow:
item | molecule | Mtb betalactam
91 | COc1ccc(-n2c(=O)c3ccccc3n(CC(=O)NCC3CCCO3)c2=O)cc1 (stereo not given) | -5
92 | Cc1cccc(C(=O)O[C@H]2[C@H](C)NS(=O)(=O)[C@H]3CC4C=C[C@]23O4)c1 | -6
93 | O=C(COc1ccc2c(-c3ccccc3)cc(=O)oc2c1)NC1CCS(=O)(=O)C1 (stereo not given) | -6
94 | CCCCN(C(=O)C1=COCCO1)c1c(N)n(Cc2ccccc2)c(=O)[nH]c1=O | 0
95 | CSc1ccccc1NC(=O)CN(C)CC(=O)Nc1ccc(S(=O)(=O)N2CCCC2)cc1 | -3
96 | CC(=O)Nc1ccc(C(=O)COC(=O)C2CCCCC2)c(F)c1 | -2
97 | O=C(NCC1CCCO1)c1ccccc1NS(=O)(=O)c1ccc(F)cc1 (stereo not given) | -8
98 | CCN(C[C@H]1N[C@@](Cc2ccccc2)(C(=O)OC)[C@H]2C(=O)N(Cc3ccccc3)C(=O)[C@@H]12)C(=O)C1CCCCC1 | 5
99 | CC(Sc1nnc(C2CC2)n1C1CC1)C(=O)Nc1cccc(S(=O)(=O)N2CCOCC2)c1 (stereo not given) | -4
100 | Cc1ccc(NC(=O)COC(=O)c2cc(=O)c3ccccc3o2)cc1F | -1
101 | NC(=O)c1ccsc1NC(=O)COC(=O)c1ccc([N+](=O)[O-])o1 | 87
102 | COc1ccc(NC(=O)c2cccnc2)cc1OCC(C)C | -6
103 | Nc1ccc(N2CCCC2)c(S(=O)(=O)Nc2cccc(C(F)(F)F)c2)c1 | 12
104 | O=C(NCC(=O)N1CCN(Cc2ccc3c(c2)OCO3)CC1)c1ccccc1F | -4
105 | Cc1cc(C)c(C(=O)COC(=O)C2CCN(c3ccc(C(F)(F)F)cn3)CC2)c(C)c1 | 1
106 | CN(CC(=O)Nc1ccc(Cl)c(C(F)(F)F)c1)C(=O)c1cc(=O)c2ccccc2o1 | -3
107 | NC(=O)C1Cc2ccccc2CN1C(=O)c1cc(C2CC2)nn1-c1ccccc1 (stereo not given) | 1
108 | Cc1ccc(C2(c3ccccc3)NC(=O)N(CC(=O)NCc3ccco3)C2=O)cc1C (stereo not given) | -15
109 | Cc1ccc(NC(=O)COC(=O)c2cccc(OC(F)F)c2)cc1S(=O)(=O)N1CCCCC1 | -11
110 | CC1(C)NC(=O)N(CC(=O)OCC(=O)c2ccc(Br)s2)C1=O | 2

Given field by field: part of the list above
108. Cc1ccc(C2(c3ccccc3)NC(=O)N(CC(=O)NCc3ccco3)C2=O)cc1C (stereo not given)
  Mtb betalactam: -15

109. Cc1ccc(NC(=O)COC(=O)c2cccc(OC(F)F)c2)cc1S(=O)(=O)N1CCCCC1
  Mtb betalactam: -11

Remaining list, next part:
item | molecule | Mtb betalactam
111 | C#CCOCCOCCOCCNc1nc(N2CCN(C(=O)[C@H](CC(N)=O)n3cc(C(N)[C@H](C)CC)nn3)CC2)nc(N2CCN(C(=O)[C@H](CC(N)=O)n3cc(C(N)[C@@H](C)CC)nn3)CC2)n1 (stereo not given in full) | 0
112 | O=C(COC(=O)CNC(=O)c1cccc(OC(F)F)c1)NNC(=O)c1ccccc1 | -2
113 | N#CCCN(C(=O)CSc1ncccn1)c1ccc2c(c1)OCCO2 | -2
114 | N#CCCN(C(=O)COC(=O)c1ccc2c(c1)OCO2)c1ccccc1 | -8

From PubChem
